Source: PubChem (several laboratories)
CBX7 AlphaScr: blocks human CBX7 binding to H3K27me3 peptide | normalised signal (fraction of DMSO) (concentration not given with the values) | O95931 | 66,000 compounds, 1.1% hits | AID 1224903 | AlphaScreen His6-CBX7 / biotin-H3K27me3 peptide binding; stronger effect = lower value; in the data active = normalised signal below about 0.5;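 note: 100 nL library stock added to about 20 µL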
Target sequence (O95931 whole entry, looked up): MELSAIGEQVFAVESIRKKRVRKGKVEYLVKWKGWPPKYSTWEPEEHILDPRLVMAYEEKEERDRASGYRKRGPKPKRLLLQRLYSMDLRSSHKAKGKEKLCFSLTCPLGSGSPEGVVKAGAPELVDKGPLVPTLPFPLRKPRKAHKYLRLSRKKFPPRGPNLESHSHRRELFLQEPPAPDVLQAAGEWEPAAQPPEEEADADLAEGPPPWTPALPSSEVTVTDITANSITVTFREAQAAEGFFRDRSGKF
CBX7 AlphaScr z-score: also measured in CBX7 AlphaScr; calls as there; z-score; measured here: z-score of CBX7 signal; some inactives read as strong as hits; reference of the scale not given here;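 same signal on another scale; lower means less binding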
An asterisk follows results filed as active.

SMILES	CBX7 AlphaScr	CBX7 AlphaScr z-score
CCN1CCN(c2cc(C)c3cc(NC(=O)c4cccnc4Cl)ccc3n2)CC1	0.97	-1.35
Cc1ccc2nc(-c3cccs3)c(NC3CCCC3)n2c1	1.01	0.0826
COc1cccc(CNC(=O)CCNS(=O)(=O)c2ccc(Br)cc2)c1	1.1	0.613
O=C(NCCCN1CCN(c2cccc(Cl)c2)CC1)C1CCCN(S(=O)(=O)c2cnc[nH]2)C1 (stereo not given)	0.988	-0.265
COc1ccc(OC)c2[nH]c(=O)c(CCNC(=O)C3CCCCC3)cc12	1.05	2.08
O=C1CC(Nc2ccc(N3CCOCC3)cc2)C(=O)N1c1ccccc1F (stereo not given)	0.94	-1.62
CCOCC(=O)Nc1c(C(=O)Nc2cccc(F)c2)oc2ccccc12	1.04	0.514
CCOc1ccc2nc(NC(N)=NS(=O)(=O)c3ccc(NC(C)=O)cc3)nc(C)c2c1	1.08	2.59
CC1CCCCN1S(=O)(=O)c1ccc(C(=O)Nc2ccccc2-c2nc3ccccc3[nH]2)cc1 (stereo not given)	0.946	-0.0633
COc1ccc(CCNc2oc(COc3ccccc3C)nc2C#N)cc1OC	0.804	-8.58
O=C(NCC1CCCO1)c1cc2n(n1)C(C(F)(F)F)CC(c1cccs1)N2 (stereo not given)	1.15	1.59
CCN(CC)S(=O)(=O)c1ccc2oc(C(=O)Nc3ccc(Br)cc3F)c(C)c2c1	0.992	-0.305
CCOc1ccc(-c2nnc(Nc3ccc(C(=O)N4CCCCC4)cc3)c3ccccc23)cc1	1.05	0.253
O=C(NCc1ccccc1Cl)C(=O)Nc1cccc(C(F)(F)F)c1	1.04	1.43
Cc1ccc(-c2nc3ccccc3o2)cc1NC(=O)COc1cccc(C)c1C	1.06	0.649
O=C(NCc1ccc2c(c1)OCO2)c1cc(Sc2cccc(Cl)c2)nc2ccccc12	1.12	0.243
O=C(Cn1cc(S(=O)(=O)c2ccccc2)c(=O)c2cc(F)ccc21)Nc1ccc(F)cc1	0.996	-0.132
CCOC(=O)c1ccc(-n2nc(C)c3c2CC(C)(C)CC3=O)cc1	1.03	0.349
O=C(NCCc1c[nH]c2ccccc12)C(=O)Nc1ccccc1F	1.01	0.264
COc1cccc(-c2nc(CS(=O)(=O)CC(=O)Nc3cccc(C)c3C)c(C)o2)c1	1.01	0.291
CCOc1ccc(-c2cn(-c3cc(C)cc(C)c3)c(=O)[nH]2)cc1	0.98	-0.255
Cc1ccc(Cn2c(=O)c3cccnc3n(CC#N)c2=O)cc1	1.09	1.6
CCOC(=O)c1cc(-c2ccccc2)n(CCC(=O)Nc2ccc(C)cc2)c1C	0.859	-1.52
CC(C)N(Cc1nc(-c2ccc(Cl)cc2)no1)C(=O)C12CC3CC(CC(C3)C1)C2	1.02	0.158
COc1ccc(OC2C(=O)N(Cc3ccc4c(c3)OCO4)C2c2ccc3c(c2)OCO3)cc1 (stereo not given)	0.884	-4.13
Cc1ccc(C(=O)NCCc2cc3cc(C)c(C)cc3[nH]c2=O)cc1	0.995	-0.186
CCOC(=O)N1CCN(C(=O)c2cc3c(-c4cccc(OC)c4)nn(C)c3s2)CC1	0.813	-2.41
Cc1ccc(Nc2nc(-c3ccccc3)nc3c2oc2ccccc23)cc1	1.26	6.54
Cc1cc(C)cc(-n2ccnc2SCC(=O)Nc2cccc(Cl)c2)c1	0.967	-0.587
Cc1cc(C)cc(NC2c3ccccc3C(=O)N2Cc2ccccc2)c1 (stereo not given)	1.02	0.302
Cc1ccc2c(c1)-c1c(cnn1CC(=O)NCc1ccccn1)CO2	1.03	0.791
COc1ccc(-n2nnnc2SCC(=O)Nc2nonc2-c2nc3ccccc3n2C)cc1	1.14	1.54
COc1ccc(-n2nc(C(=O)NCC(=O)Nc3cccc(Cl)c3)c3ccccc3c2=O)cc1OC	0.987	-0.26
COc1ccc(C2C(=O)N(C3CCCCCC3)CC(=O)N2Cc2ccc(C)cc2)cc1 (stereo not given)	0.766	-0.944
O=C(O)c1ccc(N2C(=O)CC(N3CCN(c4ccc(F)cc4)CC3)C2=O)cc1 (stereo not given)	0.862	-2.19
CCN(C(=O)Cn1nc(Cc2ccncc2)c2ccccc2c1=O)c1cccc(C)c1	0.955	-1.32
O=C(C1CC1)N1CCc2cc(S(=O)(=O)NCc3ccc4c(c3)OCO4)ccc21	1.03	0.962
Cc1ccccc1-c1nc(CS(=O)(=O)CC(=O)N2CCCCCC2)c(C)o1	1.02	0.446
Cc1cc(Br)ccc1NC(=O)c1cn(-c2ccc(Cl)cc2)c(=O)c2ccccc12	0.957	-1.43
Cc1c(C(=O)NCc2ccccc2Cl)oc2ccc(S(=O)(=O)N3CCCCC3)cc12	1.06	2.35
COc1cccc(N2CCN(c3nc4cccnc4s3)CC2)c1	1.04	1.05
COc1ccc(C2CC(=O)Nc3cc(OC)c(OC)cc32)cc1 (stereo not given)	0.931	-0.556
O=C(Cn1ncc2c1-c1ccccc1OC2)N1CCN(Cc2ccccc2)CC1	0.932	-0.854
COC(CNC(=O)CCN1N=C(c2ccccc2)CCC1=O)OC	1.08	1.37
CCOc1ccc(CNc2sc3c(c2C(=O)Nc2ccc(OC)cc2)CCC3)cc1	0.695	-6.01
CC(NC(=O)CCN1C(=O)COc2ccccc21)c1ccccc1 (stereo not given)	1.02	0.591
O=C(Nc1ccc2oc(-c3cccc(Br)c3)nc2c1)c1ccc2c(c1)OCCO2	1.04	1.97
CCCN1CCN(C(=O)CN2C(=O)C(CC)Oc3ccc(C)cc32)CC1 (stereo not given)	1.01	0.196
O=C(CSc1nnc2c(n1)[nH]c1ccccc12)Nc1ccccn1	0.919	-1.04
COc1cccc(NC(=O)Cn2cc(S(=O)(=O)c3ccccc3)c(=O)c3cc(Cl)ccc32)c1	0.911	-2.89
O=C(C1CCCN(S(=O)(=O)c2cccc3cccnc23)C1)N1CCN(c2ccc(F)cc2)CC1 (stereo not given)	0.899	-2.69
COc1ccc(/C=C/c2ccc3cccc(OCc4ccccc4)c3n2)cc1OC	1.78	9.25
COc1ccc(CNC(=O)c2sc3nc(-c4ccc(F)cc4)cn3c2C)cc1	1.02	0.623
Cc1ccc2c(c1)N(CC(=O)NCc1ccc(F)cc1)C(=O)CO2	1.02	0.108
COc1ccc(-c2nn(C)c3sc(C(=O)N4CCC(C)CC4)cc23)cc1OC	1.02	0.684
CCN(CC)CCCNC(=O)Cn1nc(-c2ccc(Cl)cc2)ccc1=O	1.01	0.573
CCN(CC)S(=O)(=O)c1ccc(NC(=O)c2cc3c(s2)-c2c(C)cccc2OC3)cc1	1.01	0.354
Cc1csc2ncc(C(=O)NCc3ccccc3Cl)c(=O)n12	0.756	-2.89
Cc1cccc2c1-c1sc(C(=O)N3CCc4ccccc4C3)cc1CO2	1.45	12.8
CCOC(CNC(=O)CS(=O)(=O)Cc1nc(-c2ccc(OC)cc2)oc1C)OCC	1.03	0.0306

Further records follow:
SMILES	CBX7 AlphaScr	CBX7 AlphaScr z-score
Cc1ccc(Cl)cc1N1CCN(S(=O)(=O)c2ccc3c(c2)CCC(=O)N3)CC1	0.923	-1.83
O=C1CC(N2CCC(Cc3ccccc3)CC2)C(=O)N1c1ccccc1 (stereo not given)	1.04	0.788
CCN(CC)CCCNC(=O)c1cn(C2CCCC2)c(=O)c2c1c1ccccc1n2C	0.976	-0.672
O=C(Nc1ccc(F)cc1F)c1nn2c(C(F)(F)F)cc(-c3cccs3)nc2c1Cl	1.14	2.23
Cc1cc(NC(=O)CSc2nnc(-c3ccc4c(c3)OCCO4)o2)no1	1.09	0.902
COCCCNC(=O)CC1C(=O)N(Cc2ccccc2)C(C)c2nc3ccccc3n21 (stereo not given)	0.864	-2.09
Fc1ccc(-n2nc(-c3ccc(Cl)cc3)cc2-c2ccc(Cl)cc2)cc1	1.06	0.96
CC(=O)Nc1cccc(-c2csc(C)n2)c1	1.23	1.99
CC1(C)CC(=O)c2cc(C(=O)Nc3ccccc3Cl)c(=O)n(-c3ccc(Cl)cc3)c2C1	0.976	-0.101
COc1ccc(C(=O)Nc2nnc(-c3ccc(C)cc3)s2)cc1OC	1.02	0.493
Cc1cc(NC(=O)CSc2nc3ccccc3s2)no1	1.01	0.0971
CCc1c(C)sc(NC(=O)c2cc(-c3ccc(O)cc3)on2)c1C#N	0.977	-0.782
CC(=O)C12c3ccccc3C(c3ccccc31)C1C(=O)N(c3ccc(C)c(Cl)c3)C(=O)C12 (stereo not given)	1.04	0.675
COc1ccc(Cl)cc1NC(=O)c1cc(-c2ccc(F)cc2)on1	1.03	1.28
Cc1onc(-c2ccccc2)c1C(=O)Nc1cccc(OC(C)C)c1	0.899	-1.11
O=C(CC(c1ccccc1)c1ccccc1O)NCC1(c2ccccc2)CCCC1 (stereo not given)	0.88	-1.3
O=C(CSc1nc2ccccc2o1)Nc1nc(-c2ccc(Br)cc2)cs1	0.703	-1.17
CC1CCN(C(=O)c2cc3c(s2)-c2ccccc2OC3)CC1	1.12	3.52
C=CCOc1ccc(C(=O)N(Cc2ccccc2)C2CCS(=O)(=O)C2)cc1 (stereo not given)	0.918	-0.0818
CCOC(=O)c1c(C)n(-c2ccc(C)cc2)c2ccc(OCC(O)CN3CCOCC3)cc12 (stereo not given)	0.888	-2.29
COc1ccc(CNc2ccc3c(c2)nc(C)n3Cc2ccccc2)cc1OC	0.404*	-3.74*
Cc1cc(C)cc(-n2ccnc2SCC(=O)Nc2cccc(C(F)(F)F)c2)c1	0.968	-0.58
Nc1cccc(-c2nc3ccc(C(=O)c4ccccc4)cc3[nH]2)c1	0.688	-7.77
CCCCNC(=O)CS(=O)(=O)Cc1nc(-c2ccccc2Cl)oc1C	1.05	1.35
Cc1cc(NS(=O)(=O)c2ccc(Nc3nc(-c4c(C)nc5sccn45)cs3)cc2)no1	0.975	-0.0295
CC(C)c1c(O)nc(SCC(N)=O)[nH]c1=O	1.01	0.406
CCOCCCNC(=O)C1CCN(Cc2nc(-c3ccccc3F)oc2C)CC1	1.04	0.421
Cc1cc(C(=O)O)c2cc(Br)ccc2n1	1.02	0.159
Cc1ccc(CNC(=O)CN2C(=O)CCSc3ccccc32)cc1	0.976	-1.11
CCn1c(=O)cc(OCC(=O)NCc2ccccc2Cl)c2ccccc21	1.08	0.951
NC(=O)c1cc(-c2ccc(COc3ccccc3)cc2)nc2ccccc12	1.02	0.121
CN(C)CCNC(=O)c1cn(C2CCCC2)c(=O)c2c1c1ccccc1n2C	0.902	-0.0973
CCOC(=O)c1ccc(-n2c(CCC(=O)O)ccc2-c2ccc(F)cc2)cc1	0.945	-1.68
Cc1cccc(N2CCN(C(=O)c3ccc4c(c3)NC(=O)c3ccccc3S4)CC2)c1C	0.88	-3.21
COc1ccc(NC(=O)Cn2ncc3c2-c2ccccc2OC3)cc1	1.14	0.839
C=CCN1C(=O)c2ccccc2Sc2ccc(C(=O)NCCC(C)C)cc21	1.04	0.979
COc1ccc(CCNC(=O)CCCN2C(=O)CSc3ncccc32)cc1OC	1.02	0.0451
O=C(CN1C(=O)COc2ccc(S(=O)(=O)N3CCCCCC3)cc21)NC1CC1	1.04	1.67
CC(C)Cc1cc(C(=O)NCCCN2CCOCC2)no1	0.863	-1.63
Cc1ccc(C)c(N(C)S(=O)(=O)c2ccc3c(c2)CCN3C(=O)C2CCC2)c1	0.986	-0.475
CCOc1ccc(C(=O)N(Cc2ccc(OC)c(OC)c2)C2CCS(=O)(=O)C2)cc1 (stereo not given)	1.09	0.091
CCN(CC)CCCNC(=O)CN1C(=O)CSc2ccc(S(=O)(=O)N3CCOCC3)cc21	1.1	3.01
COc1cc2c(=O)c(S(=O)(=O)c3ccccc3)cn(CC(=O)Nc3ccccc3C)c2cc1OC	0.884	-1.91
COCC(=O)Nc1ccc(S(=O)(=O)Nc2ncccn2)cc1	1.31	3.52
Cc1cc(OCc2nc(-c3cccnc3)no2)ccc1Cl	1.19	1.35
Cc1ccc(C2CC(=O)NC3=C2C(=O)CC(C)(C)C3)cc1Br (stereo not given)	0.965	-0.441
CCCc1cc(C(=O)Nc2c(C)nn(Cc3ccccc3C)c2C)no1	0.947	-1.15
COc1ccc(C(C(=O)Nc2ccc(C(C)C)cc2)N(C)C(=O)c2cnccn2)cc1 (stereo not given)	0.836	-1.57
Cc1oc(-c2ccccc2F)nc1CN1CCC(C(=O)NC2CCCCC2)CC1	1.14	1.7
CC(C)(C)c1nnc(Nc2ccc(Cl)cc2)[nH]c1=O	1.13	0.258

Reprinted from the results shown (15 entries):
SMILES	CBX7 AlphaScr	CBX7 AlphaScr z-score
C=CCN1C(=O)c2ccccc2Sc2ccc(C(=O)NCCC(C)C)cc21	1.04	0.979
COc1ccc(CCNC(=O)CCCN2C(=O)CSc3ncccc32)cc1OC	1.02	0.0451
O=C(CN1C(=O)COc2ccc(S(=O)(=O)N3CCCCCC3)cc21)NC1CC1	1.04	1.67
CC(C)Cc1cc(C(=O)NCCCN2CCOCC2)no1	0.863	-1.63
Cc1ccc(C)c(N(C)S(=O)(=O)c2ccc3c(c2)CCN3C(=O)C2CCC2)c1	0.986	-0.475
CCOc1ccc(C(=O)N(Cc2ccc(OC)c(OC)c2)C2CCS(=O)(=O)C2)cc1 (stereo not given)	1.09	0.091
CCN(CC)CCCNC(=O)CN1C(=O)CSc2ccc(S(=O)(=O)N3CCOCC3)cc21	1.1	3.01
COc1cc2c(=O)c(S(=O)(=O)c3ccccc3)cn(CC(=O)Nc3ccccc3C)c2cc1OC	0.884	-1.91
COCC(=O)Nc1ccc(S(=O)(=O)Nc2ncccn2)cc1	1.31	3.52
Cc1cc(OCc2nc(-c3cccnc3)no2)ccc1Cl	1.19	1.35
Cc1ccc(C2CC(=O)NC3=C2C(=O)CC(C)(C)C3)cc1Br (stereo not given)	0.965	-0.441
CCCc1cc(C(=O)Nc2c(C)nn(Cc3ccccc3C)c2C)no1	0.947	-1.15
COc1ccc(C(C(=O)Nc2ccc(C(C)C)cc2)N(C)C(=O)c2cnccn2)cc1 (stereo not given)	0.836	-1.57
Cc1oc(-c2ccccc2F)nc1CN1CCC(C(=O)NC2CCCCC2)CC1	1.14	1.7
CC(C)(C)c1nnc(Nc2ccc(Cl)cc2)[nH]c1=O	1.13	0.258

An excerpt. The share of hits here may be higher or lower than overall.
